Proteasome disasm: blocks ATP-dependent breakdown of the yeast 26S proteasome. anti-FLAG beads, GFP-proteasome disassembly, flow cytometry. 24,000 tested, 0.2% active. inhibition of disassembly, % (concentration not given with the values). AID 751;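 active means above 40%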;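 further: plate controls were ATP control with full disassembly for no effect and ATP-gamma-S intact proteasomes for full effect; higher percent means more bead fluorescence retained so stronger block of disassembly; stock transfer was 100 nL into about 10 µL; wells with too few beads may also be inconclusive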
VCAM-1 rise: enhancers of VCAM-1 display on endothelial cells, cell-based, plate reader, pooled HUVEC, TNFa stimulus (AID 455) | HUVEC TNFa-induced VCAM-1 immunofluorescence, plate reader; numbers were filed only for top-ranked candidate wells | 10,000 tested, 0.2% active | augmentation, % at 5 µM;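 active means a compound raising TNF-alpha-driven VCAM-1 surface staining, with its hit status upheld on visual or statistical review; inactive means the rest, including hits rejected on review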;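 further: 0% = TNFa with vehicle and 100% = strongest image-checked hit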
Starred values were filed as active, the others as inactive; i = inactive; · = not tested or not shown. Only part of the results is shown; count on the stated rates, not on these rows.

Proteasome disasm,VCAM-1 rise,SMILES
0.7,·,CCOC(=O)N1CCC(NC(=O)CS(=O)(=O)Cc2nc(-c3cccc(OC)c3)oc2C)CC1
-1.2,i,CCn1nc(C)c(NC(=O)c2cc(Br)ccc2Cl)c1C
-0.6,·,COc1cccc(/C=N/n2cncn2)c1OCC#N
0.1,i,CC(C)[C@H](NC(=O)NC1CCCC1)C(=O)O
0.7,·,CCOc1ccc(N(CC(=O)NC2CCCCCC2)S(=O)(=O)c2c(C)noc2C)cc1
-3.2,i,Cc1nnc(SCC(=O)N2CCC(C(N)=O)CC2)s1
1.1,i,O=C(COC(=O)CCOc1ccccc1)Nc1ccc(Cl)cn1
0.4,·,COc1cc2c(=O)n(Cc3ccco3)c(=O)n(CC(=O)c3ccc(Br)cc3)c2cc1OC
1.9,i,Cc1ccc2c(c1)N(CC(=O)N1CCCCC1c1cccnc1)C(=O)CO2 (stereo not given)
0.1,·,Cc1nn(C(C)C(=O)O)c(=O)c2c1sc1ccccc12 (stereo not given)
0.3,·,COc1ccccc1-c1cc(C(F)(F)F)nc(S(=O)(=O)CCCC(=O)N2CCCCC2C)n1 (stereo not given)
-0.1,·,CCOC(=O)N1CCN(C(=O)c2cc3c(=O)n(C)c4ccccc4c3n2C)CC1
0.4,i,Cc1cc2c(c(=O)o1)C(Cc1ccccc1)C(C#N)=C(N)O2 (stereo not given)
0.8,·,CCN(Cc1ccccc1)S(=O)(=O)c1nc2nc(C)c(C)c(C)n2n1
2.2,·,O=C(Cn1cc(C(=O)c2cccs2)c2ccccc21)NCc1ccc2c(c1)OCO2
0.2,·,O=C(CSc1nc2ccsc2c(=O)n1Cc1ccccc1)NCc1ccco1
0.7,·,CCCc1cc(C(=O)Nc2cc(OC)c(Cl)cc2OC)no1
-1.7,·,COc1cc2c(=O)n(Cc3ccccc3)c(=O)n(CC(=O)NCC3CCCO3)c2cc1OC (stereo not given)
-0.9,·,O=C(Nc1cccc(C(F)(F)F)c1)C1CCCN(S(=O)(=O)c2cnc[nH]2)C1 (stereo not given)
-0.9,·,CCC(CC)C(=O)Nc1c2cnn(-c3ccccc3)c2nc(=O)n1-c1ccccc1
-1.8,·,CCOC(=O)N1CCC(NS(=O)(=O)c2ccc3c(c2)C(C)(C)C(=O)N3C)CC1
1.6,·,CC1Cc2ccccc2N1C(=O)c1cnc2ccccn2c1=O (stereo not given)
-1.1,·,COc1ccc(Nc2nc(N3CCCC3)c3ccccc3n2)cc1
0.2,·,CN(CC(=O)NCc1ccco1)S(=O)(=O)c1ccc2c(c1)n(C)c(=O)c(=O)n2C
2.5,i,COCCCNC(=O)c1ccccc1NS(=O)(=O)c1ccc(C)cc1
-1.4,·,CCOC1OC2C(CO)OC(n3cnc4c(N)ncnc43)C2O1 (stereo not given)
1.6,i,CCCOc1ccc([C@@H]2C3CN(C(=O)OCC)CC=C3C(C#N)=C(N)C2(C#N)C#N)cc1OC (stereo not given in full)
-1.0,·,CCCS(=O)(=O)c1c(S(=O)(=O)CCC)c2cc(CC)ccn2c1C(=O)OC
1.7,·,CCSc1nnc(NC(=O)CSc2nc3c(c(=O)n2C)SC(C)C3)s1 (stereo not given)
1.0,i,Cc1c(C(=O)Nc2nnc(C(F)(F)F)s2)oc2ccccc12
0.8,·,Cc1ccc(CNC(=O)C2c3ccccc3C(=O)N(C)C2c2c[nH]c3ccccc23)o1 (stereo not given)
1.8,i,CC(NS(=O)(=O)c1ccc(OCC(=O)N2CCOCC2)c(Cl)c1)c1ccccc1 (stereo not given)
0.9,i,CC(=O)OC[C@H]1O[C@@H](n2ncc(=O)[nH]c2=O)[C@H](OC(C)=O)[C@@H]1OC(C)=O
4.2,i,O=C(NC1CCCCC1)C1CCCN1C(=O)NCc1ccccc1 (stereo not given)
0.0,·,Cc1cc(NCc2ccco2)nc2cc(O)ccc12
-2.3,i,COC(=O)c1[nH]c2ccccc2c1NS(=O)(=O)c1ccc(OC)cc1OC
-0.2,·,CCOC(=O)C1CCN(c2c(N3CCN(c4ccccc4OC)CC3)c(=O)c2=O)CC1
0.1,i,CNC(=O)c1c(O)c2cccc3c2n(c1=O)CC3
0.0,·,O=C(Cn1c(=O)n(CCC(=O)N2CCc3ccccc3C2)c(=O)c2ccccc21)NCC1CCCO1 (stereo not given)
25,i,COc1ccc(-c2ccc(-c3noc(-c4ccccc4)n3)c(OC)n2)cc1
-1.2,·,COc1ccc(OCc2nnc3n2N=C(c2ccc(Br)cc2)CS3)cc1
-1.9,i,O=C(CCn1c(=S)[nH]c2ccccc2c1=O)NCC1CCCO1 (stereo not given)
-2.5,i,CCCn1nc(NS(=O)(=O)c2ccccc2)c2cc3ccccc3nc21
1.1,i,COCCn1c(-c2ccco2)nc2nc3ccccc3nc21
1.8,i,COC(=O)c1ccccc1NC(=O)CSc1nnc(-c2ccncc2)o1
0.1,i,CC(=O)Nc1nc(=S)ss1
1.3,·,O=C(c1n[nH]c2c1CCCC2)n1ccnc1
-0.7,i,Cc1cccc(Nc2ccccc2C(=O)O)c1C
-3.4,i,CC(C)(C)NC(=O)Cn1c(=O)oc2ccc(Cl)cc21
0.0,i,CC1CN(c2ccc(Oc3ccccc3)cc2)c2nc3c(c(=O)n(CC(N)=O)c(=O)n3C)n2C1 (stereo not given)

Continued:
Proteasome disasm,VCAM-1 rise,SMILES
-0.7,·,Cc1ccc(C2CC(c3ccc(Cl)cc3)n3nc(N)nc3N2)cc1 (stereo not given)
-1.2,·,CCN1CCN(c2ccc(-n3c(C)nc4c(cnn4-c4ccccc4Cl)c3=O)cc2)CC1
0.4,·,Cc1ccc(NC(=O)CSc2nnc(Cn3c(=O)sc4ccccc43)n2C)cc1Cl
-0.4,i,COc1ccc2c(c1)C(C)=CC(C)(C)N2C(=O)CSc1nnc(-c2ccc(C)cc2)o1
1.9,i,CCOC(=O)CSC1=Nc2ccccc2C2=NC(CC(=O)NCc3cccs3)C(=O)N12 (stereo not given)
1.0,i,CC1Cc2ccccc2N1C(=O)Cc1cccs1 (stereo not given)
-0.6,i,CCOC(=O)c1[nH]c2ccccc2c1NC(=O)C(CC)CC
-0.7,i,Cc1nc2sc(C(c3cccc(F)c3)N3CCOCC3)c(O)n2n1 (stereo not given)
3.5,i,COc1ccc2cc(C#N)c(SCC(=O)N3CCCC3)nc2c1
-1.3,·,c1cncc(-c2cccnc2)c1
13,i,O=c1[nH]c(Nc2ccccc2)cc2ccccc12
0.1,·,CCOC(=O)c1nc(Nc2ccc(C(=O)O)cc2)c2ccccc2n1
2.3,·,COC(=O)c1c[nH]n2c(=O)c(Cc3ccc(F)cc3Cl)c(C)nc12
-2.4,i,COC(=O)Cn1cc(C(=O)c2cccs2)c2ccccc21
-1.0,·,CCOC(=O)N1CCN(C(=O)Cc2ccc(-n3c(=O)[nH]c4ccccc4c3=O)cc2)CC1
0.5,·,COc1ccc(CC(=O)Nc2ccc(-c3noc(-c4cccc(OC)c4)n3)cc2)cc1
0.7,i,COCCNC(=O)C(c1ccc(C)o1)N(Cc1ccc(OC)cc1)C(=O)Cn1nnc2ccccc21 (stereo not given)
0.3,·,CCCN1CCN(C(=O)Cn2ncc3ccccc32)CC1
-0.6,·,Cc1ccccc1C(=O)NCCN=C1NS(=O)(=O)c2ccccc21
-4.4,·,CC(C)OCCCNC(=O)c1cc2c(=O)n(C)c3ccccc3c2n1C

Four of these compounds, set out differently:
SMILES | Proteasome disasm | VCAM-1 rise
CCn1nc(C)c(NC(=O)c2cc(Br)ccc2Cl)c1C | -1.2 | i
O=C(Cn1c(=O)n(CCC(=O)N2CCc3ccccc3C2)c(=O)c2ccccc21)NCC1CCCO1 (stereo not given) | 0.0 | ·
Cc1cccc(Nc2ccccc2C(=O)O)c1C | -0.7 | i
COc1cc2c(=O)n(Cc3ccco3)c(=O)n(CC(=O)c3ccc(Br)cc3)c2cc1OC | 0.4 | ·

Next entries:
Proteasome disasm,VCAM-1 rise,SMILES
3.0,i,CCC(c1nnc(SCC(=O)Nc2ccc(C(=O)Nc3ccccc3OC)cc2)o1)N(C)C (stereo not given)
1.6,·,COCCn1c(=O)c2c(nc3n2CCN3c2ccc(C)cc2)n(C)c1=O
0.2,·,CC1CCN(C(=O)C(NS(=O)(=O)c2cccc3nsnc23)c2ccccc2)CC1 (stereo not given)
-0.2,i,COC(=O)c1cccc(Oc2nc3c(c(=O)n(C)c(=O)n3C)n2C(C)C)c1
-0.8,·,COC(=O)CN(c1ccc(OC)cc1)S(=O)(=O)c1c(C)noc1C
5.6,·,CCn1c(COc2cccc3cccnc23)nnc1SCC(=O)O
-2.6,·,COc1ccc(-c2cc(C(=O)N3CCOCC3)no2)cc1OC
0.9,i,CCN(CC)S(=O)(=O)c1ccc(NC2CCCc3ccccc32)nc1 (stereo not given)
1.9,·,O=C1c2ccccc2C(Nc2ccc(S(=O)(=O)N3CCCCC3)cc2)N1c1ccccn1 (stereo not given)
0.4,·,COc1ccc(-c2cc(C(=O)Nc3ccccc3SC)no2)cc1OC

Complete entries, looked up by structure. Values in the order: Proteasome disasm | VCAM-1 rise
CC1CCN(C(=O)C(NS(=O)(=O)c2cccc3nsnc23)c2ccccc2)CC1 (stereo not given) is listed with 0.2 | ·
COC(=O)CN(c1ccc(OC)cc1)S(=O)(=O)c1c(C)noc1C is listed with -0.8 | ·
CCC(c1nnc(SCC(=O)Nc2ccc(C(=O)Nc3ccccc3OC)cc2)o1)N(C)C (stereo not given) is listed with 3.0 | i
O=C1c2ccccc2C(Nc2ccc(S(=O)(=O)N3CCCCC3)cc2)N1c1ccccn1 (stereo not given) is listed with 1.9 | ·
CCn1c(COc2cccc3cccnc23)nnc1SCC(=O)O is listed with 5.6 | ·

New compounds follow
Proteasome disasm,VCAM-1 rise,SMILES
-1.1,i,O=C(O)CCC1(C(=O)O)OCCc2ccccc21 (stereo not given)
-3.1,·,Cn1c(Cn2c(=O)sc3ccccc32)nnc1SCC(=O)N1CCc2ccccc21
0.4,i,O=C(CCCCCn1c(=S)[nH]c2cc3c(cc2c1=O)OCO3)N1CCN(Cc2ccccc2)CC1
0.8,·,Cc1ccccc1OCc1nc(-c2ccc(NC(=O)c3ccco3)cc2)no1
2.4,i,O=C(CNC1CCCCCC1)Nc1ccc(S(=O)(=O)NC2CC2)cc1
-0.2,i,Cc1occc1-c1nc(-c2ccncc2)no1
-5.9,i,O=C(C1CCN(S(=O)(=O)Cc2ccccc2)CC1)N1CCN(c2ncccn2)CC1
1.1,·,O=C(CN1C(=O)C2(OCCO2)c2ccccc21)c1ccc(F)cc1
3.2,·,CC1CCN(CCCn2c(=S)[nH]c3ccc(N4CCOCC4)cc3c2=O)CC1
0.6,·,CC1CCN(C(=O)C2c3ccccc3C(=O)N3CCc4ccccc4C23)CC1 (stereo not given)
-0.2,i,CC1=C(C(=O)OC(C)C)C(C2CC=CCC2)NC(=O)N1 (stereo not given)
-0.5,·,CCOC(=O)c1ccc(N2C(=O)c3n[nH]c(C)c3C2c2ccccn2)cc1 (stereo not given)
4.4,i,O=C(Nc1cnn(Cc2ccc(F)cc2)c1)c1cnccn1
0.0,·,COc1ccc(NC(=O)N(C2CCCCC2)C(C)c2cccnc2)c(OC)c1 (stereo not given)
2.4,i,COc1cccc(N2C(=O)N(c3ccccc3Cl)C3CS(=O)(=O)CC32)c1 (stereo not given)
-0.2,i,Cc1[nH]c2ccccc2c(=O)c1CN1CCCCC1
6.4,·,O=C1C2CCCN2C(c2ccccc2)N1c1ccc(F)cc1 (stereo not given)
-1.2,·,O=C(c1ccc(Cn2c(=O)[nH]c3ccccc3c2=O)cc1)N1CCN(c2ccccn2)CC1
0.3,·,CC(C(=O)N1CCCc2c1c(=O)oc1ccc(O)cc21)N1CCc2ccccc2C1 (stereo not given)
0.0,i,CCC(C)c1ccc(NC(=O)c2cccnc2)cc1 (stereo not given)
0.1,i,CCC(NC(C)C)C(O)c1ccc(O)c(O)c1 (stereo not given)
-0.1,·,Cc1ccc(S(=O)(=O)N2CC3CCC2C3)cc1 (stereo not given)
0.0,·,COc1cc2c(cc1OC)C(=NCCC(=O)O)NC(C)(C)C2
-1.1,·,CCOc1ccc(-n2c(=O)cc(N3CCN(c4ccc(F)cc4)CC3)[nH]c2=O)cc1
-0.3,i,O=C(NC(NC1CCS(=O)(=O)C1)C(=O)c1cccs1)c1ccccc1 (stereo not given)
0.3,·,O=C(CSc1nc2ccccc2o1)NCc1ccc2c(c1)OCO2
-1.9,·,CN(c1ccc(Cl)cc1)c1cc(=O)n(C)c2ccccc12
0.0,i,CCCN1CCN(CCCNC(=O)Cn2nc(-c3ccc(Cl)cc3)ccc2=O)CC1
-0.9,·,Cc1ccc2oc(=O)c3cnn(CC(=O)NC4CCCCC4C)c3c2c1 (stereo not given)
-0.6,·,CCOC(=O)COc1ccc2c(c1)C(=O)CC(C)(C)O2
0.0,i,CCOCCCNC(=O)CCNS(=O)(=O)c1ccc(C)cc1
0.1,i,CC(=O)Nc1ccc(S(=O)(=O)N(CC(=O)O)Cc2ccccc2)cc1
0.6,i,CCOC(=O)CC12CN3CN(C1)CC(CC(=O)OCC)(C3)C2=O
